High-throughput results deposited in PubChem by National Center for Advancing Translational Sciences (NCATS).
miR-21 FLuc – qHTS Assay for Modulators of miRNAs and/orActivators of miR-21 | HeLa miR-21 FLuc reporter, luciferase, 48 h | Potency, µM (doses to about 38.3 µM), without a hit: at the top dose reporter change, positive = more light | 340,000 tested, under 10 active | AID 2288, 2010; active = well fitted rising curve with a large enough effect; inconclusive = small, poorly fitted or top-dose-only effect; inactive = no such curve, though single readings can be large or run the other way;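 further: % of control where 0% means no effect; miR-21 action dims this reporter so a rising signal means less miR-21 action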
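Using DMEM plus 10% FBS, HeLa miR-21-FLuc cells are incubated with test compounds (final up to about 40uM) for 48 hours; firefly luciferase signal is then imaged following reagent-mediated lysis.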
Active calls of the source: *; ? = inconclusive. Only part of the results is shown, so the mix of outcomes need not match the whole.

SMILES | miR-21 FLuc
COc1ccc(Oc2nc3c(c(=O)n(Cc4ccc(Br)cc4)c(=O)n3C)n2C)cc1 | -2.2%
CCc1nn(CC(=O)NC(C)CC)c(=O)c2cc3c(OC)cccc3n12 (stereo unspecified) | -6.9%
COc1cc(C(=O)Nc2ccc(-c3nc4ccccc4o3)c(O)c2)cc(OC)c1OC | -8.7%
CCOc1ccc(CNC(=O)C2CCCN(c3nn4cc(-c5ccc(OC)cc5)nc4s3)C2)cc1 (stereo unspecified) | -31.6%
O=C(CSc1nc(=O)[nH]c2c1CCC2)NCc1ccc(F)cc1 | 0.9%
Cc1ccc2c(c1C)NC(=O)CC2c1ccc(Cl)cc1Cl (stereo unspecified) | 2.3%
Cc1ccc(-n2ncc3c(N(CC(C)C)CC(C)C)ncnc32)c(C)c1 | 10.1%
CSc1ncc(C(=O)NCc2ccccc2F)c(-c2ccccc2)n1 | -10.0%
Cc1ccc2oc(C(=O)Nc3ccc(S(=O)(=O)Nc4nc(C)cc(C)n4)cc3)cc(=O)c2c1 | -14.6%
O=C1COc2cc(S(=O)(=O)CCC(=O)N3CCN(c4ccccc4F)CC3)c(Cl)cc2N1 | -11.1%
COc1ccc(CCNC(=O)Cn2nnc(-c3ccc(C(F)(F)F)cc3)n2)cc1OC | -8.4%
CCCCOc1ccc(S(=O)(=O)n2nc(C)c(S(=O)(=O)N3CCCCCC3)c2C)cc1 | 1.7%
CN(C)c1ccc(-c2nc(-c3cc4cc(Cl)ccc4oc3=O)cs2)cc1 | -2.5%
O=C(Nc1ccc(OC(F)(F)F)cc1)C1CCCN(S(=O)(=O)c2cccc3nonc23)C1 (stereo unspecified) | -3.9%
Cc1ccc(N2CCN(C(=O)C3CCN(c4ncnc5c4nc4n5CCCCC4)CC3)CC2)c(C)c1 | 13.2%
CCOc1ccc(CCNC(=O)CCCn2c(=O)c3cccn3c3cccnc32)cc1 | -11.6%
CCOC(=O)c1ccc(NC(=O)CSc2nccn2Cc2ccc(OC)cc2)cc1 | 18.8%
COc1cccc(-c2cc(C(=O)NCc3ccc(F)cc3)no2)c1 | -22.2%
Cc1ccc(S(=O)(=O)N2CCN(Cc3cc(Br)ccc3O)CC2)cc1 | 1.7%
Cc1ccc(C)c(Cn2cnc3c(cnn3-c3ccc(F)cc3)c2=O)c1 | -0.4%
COCCNc1ncnc2c1cnn2-c1cc(Cl)ccc1C | -0.5%
O=C(CSc1nc2c([nH]c3ccccc32)c(=O)n1-c1ccccc1)Nc1ccccc1F | -9.0%
CCc1ccc(CN2C(=O)c3ccccc3C2C(=O)NC2CCCCCC2)cc1 (stereo unspecified) | -3.8%
Cc1ccc(C)c(NS(=O)(=O)c2cc3c(cc2Cl)NC(=O)CO3)c1 | 2.1%
O=C(O)CCC(=O)N1CCc2cc(S(=O)(=O)NCc3ccc(F)cc3)ccc21 | 0.8%

14 entries out of the list, ordered by formula weight, high to low.
SMILES | miR-21 FLuc
CCOc1ccc(CNC(=O)C2CCCN(c3nn4cc(-c5ccc(OC)cc5)nc4s3)C2)cc1 (stereo unspecified) | -31.6%
O=C1COc2cc(S(=O)(=O)CCC(=O)N3CCN(c4ccccc4F)CC3)c(Cl)cc2N1 | -11.1%
COc1ccc(Oc2nc3c(c(=O)n(Cc4ccc(Br)cc4)c(=O)n3C)n2C)cc1 | -2.2%
O=C(Nc1ccc(OC(F)(F)F)cc1)C1CCCN(S(=O)(=O)c2cccc3nonc23)C1 (stereo unspecified) | -3.9%
O=C(CSc1nc2c([nH]c3ccccc32)c(=O)n1-c1ccccc1)Nc1ccccc1F | -9.0%
CCOc1ccc(CCNC(=O)CCCn2c(=O)c3cccn3c3cccnc32)cc1 | -11.6%
CCc1ccc(CN2C(=O)c3ccccc3C2C(=O)NC2CCCCCC2)cc1 (stereo unspecified) | -3.8%
Cc1ccc(C)c(NS(=O)(=O)c2cc3c(cc2Cl)NC(=O)CO3)c1 | 2.1%
Cc1ccc(-n2ncc3c(N(CC(C)C)CC(C)C)ncnc32)c(C)c1 | 10.1%
Cc1ccc(C)c(Cn2cnc3c(cnn3-c3ccc(F)cc3)c2=O)c1 | -0.4%
O=C(CSc1nc(=O)[nH]c2c1CCC2)NCc1ccc(F)cc1 | 0.9%
COc1cccc(-c2cc(C(=O)NCc3ccc(F)cc3)no2)c1 | -22.2%
Cc1ccc2c(c1C)NC(=O)CC2c1ccc(Cl)cc1Cl (stereo unspecified) | 2.3%
COCCNc1ncnc2c1cnn2-c1cc(Cl)ccc1C | -0.5%

(next part)
SMILES | miR-21 FLuc
Cc1cc(C)n2nc(CNS(=O)(=O)c3ccccc3)nc2n1 | -0.8%
Cc1ccccc1Cn1cc(CCC(=O)NCc2cccc(Br)c2)c2ccccc21 | -0.5%
COc1ccc(CNC(=O)c2cc3c(-c4ccccc4F)nn(C)c3s2)cc1 | 13.0%
CCCCN1C(=O)C(O)(c2c(C)[nH]c3ccccc23)c2ccccc21 (stereo unspecified) | -0.4%
Fc1ccc(-n2cc(-c3ccccc3)c3c(NCCc4ccccc4)ncnc32)cc1 | -8.5%
CCOc1ccc(NC(=O)N2CCOc3ccccc32)cc1 | -9.9%
COC(=O)c1ccc(NC(=O)c2nn(C)c3c2COc2ccccc2-3)cc1 | 22.3%
CCC(=O)N1CCc2cc(Br)cc(S(=O)(=O)NCCc3cccc(C)c3)c21 | -3.2%
Cc1ccc([N+](=O)[O-])cc1S(=O)(=O)N1CCn2cccc2C1c1ccccc1F (stereo unspecified) | 0.7%
CC(C)c1ccc(NS(=O)(=O)c2ccc3[nH]cc(C(=O)NC4CCCCC4)c(=O)c3c2)cc1 | 16.6%
COc1cc(OC)c(NC(=O)CCCn2nc(C)c3c(C)n(-c4ccccc4)nc3c2=O)cc1Cl | -1.5%
CCOc1ccc(C(=O)Nc2ccc(C(=O)OCc3cc(=O)n4c(C)csc4n3)cc2)cc1 | ?
COc1cccc(C(=O)NCC(c2ccc(N(C)C)cc2)N2CCOCC2)c1OC (stereo unspecified) | -10.9%
COC(=O)c1cc2oc3ccccc3c2n1Cc1nc(-c2ccccc2Cl)oc1C | -2.7%
CC(C)(C)OC(=O)N1CCC(c2c(C(=O)Nc3ccc4c(c3)OCCO4)cnn2-c2ccccc2)CC1 | -1.3%
COc1ccc(C2=NC(c3ccccc3)=Nc3ccc(C)cc3N2)cc1 | -5.4%
COc1ccc(NC(=O)N(CCC(C)C)C(C)c2cccs2)c(OC)c1 (stereo unspecified) | 6.7%
Cc1cc(C)cc(NC(=O)C2CCN(S(=O)(=O)c3c(C)noc3/C=C/c3ccco3)CC2)c1 | -4.4%
Cc1ccc(Cn2nnc3sc4c(c3c2=O)CCC(C)C4)cc1 (stereo unspecified) | 4.0%
COC(=O)c1ccc(NC(=O)CC2C(=O)N(c3ccccc3)C(=O)N2C2CCCC2)cc1 (stereo unspecified) | -3.2%
COc1ccc(Nc2oc(/C=C/c3ccc(F)cc3)nc2C#N)cc1 | -26.0%
Cc1ccc(S(=O)(=O)c2cn(C)c3cc(N4CCCC4)c(F)cc3c2=O)c(C)c1 | -0.3%
Cc1ccc(C(=O)Nc2nc(-c3ccccc3)ns2)cc1 | -23.3%
CC(=O)c1ccc(NC(=O)c2nc(-c3ccc(C)cc3)n3c2CCCCC3)cc1 | -10.4%
Cc1ccc2nc3c(cc(C#N)c(=O)n3-c3nnc(SCc4ccccc4)s3)c(=O)n2c1 | -1.1%
(continued)
SMILES | miR-21 FLuc
O=C(CCCc1ccccc1)NC1CC(=O)N(c2ccc(Cl)cc2)C1 (stereo unspecified) | -0.2%
Cc1ccc(C)c(Cn2c(=O)n(Cc3ccccc3)c(=O)c3c2c2cc(C)ccc2n3C)c1 | 4.9%
O=C(NCC(c1cccnc1)N1CCN(Cc2ccccc2)CC1)C(=O)Nc1cccc(Cl)c1 (stereo unspecified) | -16.6%
Cc1ccc2c(c1)c1c3n2CCN(C(=O)c2ccc(C(F)(F)F)cc2)C3CCC1 (stereo unspecified) | 4.5%
O=c1c2c(-c3ccc(Cl)cc3)ccnc2[nH]n1-c1ccccc1 | 4.1%
O=C(CCS(=O)(=O)c1nc(-c2cccs2)cc(C(F)(F)F)n1)Nc1ccc(OC(F)(F)F)cc1 | ?
CCCCN1CC(c2nc3ccccc3n2CCCCOc2ccc(C)c(C)c2)CC1=O (stereo unspecified) | -1.0%
O=C(CSc1nnc(-c2ccccc2Cl)o1)N1CCCc2ccccc21 | -7.0%
COc1cccc(N2C(=O)CSC23C(=O)N(CC(=O)Nc2cccc(Cl)c2)c2ccccc23)c1 (stereo unspecified) | 13.1%
O=C(Nc1cc(Cl)cc(Cl)c1)c1ccc2c(c1)N(Cc1cccc(Cl)c1)C(=O)c1ccccc1S2=O (stereo unspecified) | -1.0%
CCc1cccc(C)c1NC(=O)C1CCCN(S(=O)(=O)c2cccc3nsnc23)C1 (stereo unspecified) | 3.0%
Cc1cccc(NC(=O)CCn2cnnn2)c1C | -3.7%
Cc1ccc(NC(=O)CCNS(=O)(=O)c2ccc3c(c2)CCCC(=O)N3)cc1 | 12.3%
CCSc1ncc(Cl)c(C(=O)N(Cc2ccccc2)c2ccc(OC)cc2)n1 | ?
CC1=C(c2ccc(C)cc2)S(=O)(=O)N(Cc2ccc(C(=O)NCc3cccc(C)c3)cc2)C1=O | -4.0%
Cc1ccc(SCC(=O)Nc2ccc3oc(-c4ccccc4C)nc3c2)cc1 | -41.7%
Cc1cccc(NC(=O)c2cc3c(=O)n(Cc4cccnc4)ccc3nc2C)c1 | -25.0%
COc1ccc(Cl)cc1NC(=O)c1c(NCc2cccnc2)sc2c1CCCC2 | 10.7%
CN(C)c1ccc(CNC(=O)C2CCN(S(=O)(=O)c3ccc4[nH]c(=O)ccc4c3)CC2)cc1 | -0.2%
COc1cc(Cl)c(C)cc1NC(=O)NC1COc2ccccc2C1 (stereo unspecified) | 2.3%
Cc1cc(Br)ccc1NC(=O)c1ccc(NS(=O)(=O)c2c(C)noc2C)cc1 | -5.2%
COc1ccc(Cn2c(SCc3ccc(C(=O)NC4CCCC4)cc3)nc3cccnc32)cc1 | -2.9%
COc1ccc(C(=O)Oc2ccc(C3NC(=O)c4c(sc5c4CCN(C)C5)N3)cc2OC)cc1 (stereo unspecified) | -14.4%
O=C(/C=C/c1ccccc1)N1CCN(Cc2cc(=O)n3nc(-c4ccccc4F)sc3n2)CC1 | -3.3%
CC(C)c1cccc(C(C)C)c1NC1=NS(=O)(=O)c2ccccc21 | -13.1%
Later entries
SMILES | miR-21 FLuc
COc1ccccc1NC(=O)c1c(C)cc(C)nc1SCC(=O)Nc1ccc(C)c(C)c1 | 15.8%
Cc1ccc(NC(=O)c2sc3nc(-c4cc5ccccc5oc4=O)[nH]c(=O)c3c2C)c(C)c1 | -2.6%
COc1ccc(CCNCc2c(C(=O)O)c(C)n(Cc3cccc(C)c3)c2C)cc1OC | 0.7%
CCN1C(=O)C(Cc2nc3ccccc3c(=O)n2-c2ccc(OC)cc2)c2ccccc21 (stereo unspecified) | 2.3%
O=C(Nc1cccc(Br)c1)c1cc(-c2ccc3c(c2)OCCO3)on1 | -2.3%
O=C(Nc1ccc2oc(-c3ccncc3)nc2c1)c1ccccc1Cl | -40.5%
COc1ccc(Br)cc1C(=O)Nc1ccc(-c2nc3cc(Cl)ccc3o2)cc1 | -5.4%
CCOc1ccc(NC(=O)CCn2c(-c3ccc(F)cc3)cc(C(C)=O)c2C)cc1 | 11.8%
COc1cc(Cl)c(C)cc1NC(=O)c1cc2ccc3cccnc3c2[nH]1 | -50.1%
Cc1cc2c(cc1S(=O)(=O)CCC(=O)N1CCCCC1C)OCC(=O)N2 (stereo unspecified) | -21.6%
Oc1c(C(c2ccccc2F)N2CCN(Cc3ccccc3)CC2)sc2nc(-c3ccco3)nn12 (stereo unspecified) | -8.3%
CC(=O)Nc1ccc(S(=O)(=O)N2CCC(n3c(C)nc4cccnc43)CC2)cc1 | 19.1%
CCOc1ccc(NC(=O)[C@H](Cc2ccccc2)N2Cc3ccccc3C2=O)cc1 | 7.0%
Cc1ccc(Cl)cc1Nc1sc(C(=O)c2ccccc2)c(N)c1S(=O)(=O)c1ccccc1 | -2.4%
CCSc1nnc(NC(=O)c2cc(=O)c3cc(C)c(C)cc3o2)s1 | 1.5%
CCN(Cc1ccccc1)C(=O)CCc1c(C)nc2c(c(C)nn2-c2ccc(C)c(C)c2)c1C | -0.3%
COc1ccc(NC(=O)Cn2c(SCc3ccc(F)cc3)nc3cccnc32)c(OC)c1 | -22.6%
COc1cc(C(=O)Nc2cccc(OCc3cc(=O)n4c(C)csc4n3)c2)cc(OC)c1OC | -2.4%
O=C(NCc1noc2ccccc12)N1CCN(c2ccccc2)CC1 | -30.6%
Cc1cccc(CNC(=O)c2ccc3oc(=O)n(Cc4ccccc4)c3c2)c1 | 13.7%
NC(=O)c1ccccc1NC(=O)Cn1nc(Cc2cccnc2)c2ccccc2c1=O | -4.9%
CCN1CCN(c2nnc(-n3cccc3C(=O)Nc3cccc(OC)c3)s2)CC1 | 1.4%
CCN(CC)c1ccc(NC(=O)c2cc(C)nc3c2c(C)nn3-c2cccc(F)c2)c(C)c1 | 3.7%
COc1ccc(-c2nc3cc(C(C)C)ccc3o2)cc1NC(=O)c1ccc(C)c(Cl)c1 | -2.3%
CCc1ccc(-c2cc(C)no2)cc1S(=O)(=O)Nc1ccc(Cl)cc1 | 21.5%
Further structures.
SMILES | miR-21 FLuc
CCOc1ccc(NC(=O)Cn2c(=O)n(Cc3ccccc3)c(=O)c3sc4ccccc4c32)cc1 | -3.3%
COc1ccccc1Oc1nc2c(C)cccn2c(=O)c1/C=C(\C#N)c1nc2ccccc2[nH]1 | 0.2%
CCc1ccc(-n2c(=O)c3c4c(sc3n(Cc3cc(=O)n5c(C)cccc5n3)c2=O)CCC4)cc1 | -1.4%
CCCCN(CCCNC(=O)c1cc(Nc2ccc(OC)cc2)nc2ccccc12)Cc1ccccc1 | -9.4%
CCOC(=O)COc1ccc(CC)cc1C(=O)c1ccn2nc(-c3ccccc3)cc2n1 | -3.3%
Cc1nc2ccn(Cc3cccs3)c(=O)c2cc1C(=O)N1CCN(c2ccc(F)cc2)CC1 | -3.4%
